# VDR inh = Inhibitors of the vitamin D receptor (VDR): qHTS | Potency, µM, for the others: max response, negative = inhibition, most hits filed as inhibitors | Vitamin D3 receptor (Homo sapiens), P11473 | AID 504847, 2011 | VDR-SRC2-3 peptide fluorescence polarization, 2 h | 400,000 tested, 0.93% active; active means well fitted inhibition curve with a large enough effect; inconclusive means small, poorly fitted or top-dose-only effect, or another doubt; inactive means no such curve, though single readings can be large or run the other way; further: series mostly up to about 120 µM
# Target sequence (P11473 whole entry, looked up): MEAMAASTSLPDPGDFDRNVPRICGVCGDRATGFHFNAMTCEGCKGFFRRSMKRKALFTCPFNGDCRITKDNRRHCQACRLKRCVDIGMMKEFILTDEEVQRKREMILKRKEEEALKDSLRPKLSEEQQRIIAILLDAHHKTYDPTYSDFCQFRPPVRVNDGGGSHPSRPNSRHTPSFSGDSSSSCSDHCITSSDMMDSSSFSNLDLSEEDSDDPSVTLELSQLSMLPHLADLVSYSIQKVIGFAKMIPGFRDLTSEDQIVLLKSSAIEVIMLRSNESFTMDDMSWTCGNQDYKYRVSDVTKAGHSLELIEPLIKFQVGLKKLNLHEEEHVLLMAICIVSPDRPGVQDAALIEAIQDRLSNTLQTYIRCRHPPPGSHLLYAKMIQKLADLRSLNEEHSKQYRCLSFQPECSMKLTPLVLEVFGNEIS
#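 Fluorescence polarization assay measuring small-molecule disruption of VDR binding to the coregulator peptide SRC2-3. Compounds were pin-transferred (23 nl) into the reagent mix and incubated 2 h at room temperature before reading.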
# Active calls of the source: *; u = inconclusive; & = joins results of further samples. On the % scale 0 is the no-effect control and ±100 the full control effect; potency means the concentration at half of the fitted maximal effect. A portion of the library, so the mix of outcomes need not match the whole.
SMILES,VDR inh
CCCC(C)C(=O)Nc1cc(S(=O)(=O)N2CCCCC2)ccc1N1CCOCC1 (centres undefined),7.5%
O=C(CSc1nnc(-c2cccc(S(=O)(=O)N3CCCCC3)c2)o1)c1ccc[nH]1,8.4%
C/C(=N/NC(=O)c1ccc(C(C)(C)C)cc1)c1ccccn1,6.6%
CCOc1ccc(NC(=O)Cn2c(=O)n(Cc3ccccc3)c(=O)c3c4c(sc32)CN(C(C)=O)CC4)cc1,-5.8%
COCC(=O)N1CCC(Oc2ccc(C(=O)NCc3cc(C)no3)cc2)CC1,-5.2%
COc1ccc(N2CCN(C(=O)c3cccc(NC(=O)c4nsc5ccccc45)c3)CC2)cc1,1.8%
CCOc1ccc(N=C2NC(=O)S/C2=C\c2ccc(N(C)C)cc2)cc1,3.2%
Cc1ccc(C)c(OCC(=O)Nc2cc(C(=O)O)cc(C(=O)O)c2)c1,4.8%
c1ccc(-c2noc(-c3cccc4ccccc34)n2)nc1,-0.1%
Cc1ccc(NC2CCCN(C(=O)CCN3CCCCO3)C2)cc1C (centres undefined),4.2%
COc1ccc(/C(C)=N\NC(=O)C(c2ccncc2)N2CCOCC2)cc1 (centres undefined),-7.3%
CCOc1ccc(CCNC(=O)C2CCN(Cc3nc(-c4ccccc4C)oc3C)CC2)cc1OCC,-5.1%
COc1ccc(/C=C2\SC(=O)N(CC(=O)NCCC(C)C)C2=O)cc1OC,-12.3%
CCN(CC)C(=O)[C@H]1CC(CC(=O)NCc2ccco2)C(=O)N2CCc3c([nH]c4ccc(OC)cc34)[C@]12C (some centres undefined),-1.1%
COc1ccc(N(C(=O)CNC(=O)c2ccco2)C(C(=O)NC2CCCC2)c2ccc(C)o2)cc1 (centres undefined),-5.7%
CSc1cccc(NC(=O)C(C)C)c1,11.4%
Cc1ccc(NC(=O)c2cc(C(C)(C)C)nn2Cc2ccccc2)cc1,-8.1%
CN(C)c1ccc(C(CNS(=O)(=O)c2ccc(F)cc2)N2CCCC2)cc1 (centres undefined),3.1%
Cc1ccc(S(=O)(=O)NCCc2nnc3ccc(SCC(=O)Nc4ccc(OC(F)(F)F)cc4)nn23)cc1,6.7%
COc1ccc(NC(=O)N2CCC(CN3CCCC3)CC2)c(OC)c1,9.7%
Cn1c(N)c(C(=O)COC(=O)CN2C(=O)c3ccccc3C2=O)c(=O)n(C)c1=O,12.7%
CCOC(=O)C1=C(O)C(=O)N(Cc2cccnc2)C1c1ccc(OC)cc1 (centres undefined),-1.6%
O=C(/C=C/c1ccco1)Nc1scc(-c2ccccc2)c1C(=O)O,-15.0%
CC(C)CN(C(=O)CN1CCOCC1)c1c(N)n(CC(C)C)c(=O)[nH]c1=O,-6.4%
Cc1nc(-c2cc(-c3nc(-c4ccc(C(F)(F)F)cc4)no3)no2)cs1,-21.4%

# Next part; it opens with the 3 that closed the last part.
SMILES,VDR inh
O=C(/C=C/c1ccco1)Nc1scc(-c2ccccc2)c1C(=O)O,-15.0%
CC(C)CN(C(=O)CN1CCOCC1)c1c(N)n(CC(C)C)c(=O)[nH]c1=O,-6.4%
Cc1nc(-c2cc(-c3nc(-c4ccc(C(F)(F)F)cc4)no3)no2)cs1,-21.4%
COc1ccc(Nc2nc(C)nc3c2oc2ccccc23)cc1,-12.0%
CCOc1cc(C(C(=O)NCC2CCCO2)N(C(=O)Cn2nnc3ccccc32)c2cccc(OC)c2)ccc1O (centres undefined),-19.8%
NS(=O)(=O)c1ccc(NC(=S)NC(=O)c2ccc(-c3ccccc3)cc2)cc1,6.4%
COc1cccc(CNCc2ccc(SC)cc2)c1OC,-4.8%
CCOC(=O)c1c(C)[nH]c(C)c1S(=O)(=O)N1CCC(C(=O)N2CCN(c3cccc(Cl)c3)CC2)CC1,10.1%
COc1cccc(NC(=O)CC(=O)Nc2ccc3nc4n(c(=O)c3c2)CCCCC4)c1,11.6%
Cc1[nH]c(=O)[nH]c(=O)c1S(=O)(=O)NCC12CC3CC(CC(C3)C1)C2,6.6%
COc1cccc(-c2cc(C(=O)N3CCCCC3C)no2)c1 (centres undefined),-4.2%
CC(C)NC(=O)Nc1ccc2c(c1)C(=O)N([C@H](C)CO)C[C@H](C)[C@@H](CN(C)S(=O)(=O)c1cn(C)cn1)O2,-8.3%
COC(=O)c1cc2c(ccn2-c2ccc(F)cc2)n1CC(=O)OC(C)C,1.1%
COC(=O)c1ccccc1-n1cc2c(c1-c1cccc(C)c1)c(=O)n(C)c(=O)n2C,8.0%
O=c1cc(-c2ccccc2)c2ccc(O)cc2o1,9.3%
CC1CN=C2C(C(=O)Nc3ccccc3)=C(O)CC(c3ccccc3)N21 (centres undefined),-4.0%
Cc1c(Nc2nc(-c3cccc([N+](=O)[O-])c3)cs2)c(=O)n(-c2ccccc2)n1C,-1.9%
Fc1ccccc1C(c1nnnn1Cc1ccc2c(c1)OCO2)N1CCN(Cc2ccco2)CC1 (centres undefined),-3.6%
COc1ccc(N(CC(=O)N2CCc3ccccc32)S(=O)(=O)c2c(C)n[nH]c2C)cc1,5.3%
CCc1ccc(-c2cc(C(=O)Nn3cnnc3)c3ccccc3n2)cc1,4.0%
COc1ccc(-c2cc(C)no2)cc1S(=O)(=O)NCc1cccc(C)c1,-0.5%
COc1ccc(OCC(=O)Nc2c(C(=O)N3CCC(N4CCCCC4)CC3)oc3ccccc23)cc1,-2.0%
Cc1sc2c(c1C)c(=O)n(-c1ccc(Cl)cc1)c(=O)n2Cc1cc(=O)n2ccccc2n1,-18.4%&-14.7%
O=C(c1cnsn1)N1CCC(CO)(Cc2cccc(F)c2)CC1,10.6%
COc1ccc(-c2cc(C)no2)cc1S(=O)(=O)N1CCN(c2ccccn2)CC1,7.7%
O=C(Nc1ccc2c(c1)CCC2)c1ccccc1F,8.6%
O[C@H](c1cc(C(F)(F)F)nc2c(C(F)(F)F)cccc12)[C@H]1CCCCN1,-12.5%
C=CCn1c(CNC(=O)c2ccccc2F)nnc1SCc1nc2ccccc2c(=O)[nH]1,-19.7%

# Overlap with the part before: two compounds, followed by the next part.
SMILES,VDR inh
O[C@H](c1cc(C(F)(F)F)nc2c(C(F)(F)F)cccc12)[C@H]1CCCCN1,-12.5%
C=CCn1c(CNC(=O)c2ccccc2F)nnc1SCc1nc2ccccc2c(=O)[nH]1,-19.7%
CCOc1cc(N2CCOCC2)c(OCC)cc1NC(=O)COC(=O)c1cc2ccccc2cc1O,4.2%
COc1cc(C2=NOC(C(=O)NCc3ccccn3)C2)cc(OC)c1OC (centres undefined),11.4%
CC1Cc2ccccc2N1C(=O)COC(=O)c1cccc(Br)c1 (centres undefined),3.7%
CSc1ccc(/C=C(\NC(=O)c2ccccc2)C(=O)NCCN2CCOCC2)cc1,0.3%
COC(=O)c1ccc(C(NC(=O)OCc2ccccc2)/C(C)=C/[C@@H](C)C(=O)NCc2ccc(OC)c(OC)c2)cc1 (some centres undefined),-7.6%
Cc1nn(-c2ccccc2)c(N2CCCC2)c1/C=N/NC(=O)c1cc(-c2cccnc2)nc2ccccc12,2.3%
COc1ccc(CCCC(=O)NCc2ccccc2)cc1C,10.9%
C[C@@H](CC(=O)O)[C@@H](N)C(=O)O,3.9%&0.9%
COc1ccccc1N1C(=O)C2C(C(=O)c3ccccc3)=NN(c3ccc(C)cc3)C2C1=O (centres undefined),0.8%
NC(=O)c1ccc(NC(=O)Cc2csc(-c3ccccc3)n2)cc1,15.3%
Fc1ccc(Cc2cn3cc(-c4ccccc4)nc3s2)cc1,5.8%
CCN(C(=O)COC(=O)Cc1c(F)cccc1Cl)c1c(N)n(Cc2ccccc2)c(=O)[nH]c1=O,-8.1%
CCOc1ccc(C(=O)NCCN2CCCCC2)c(OCC)c1,-22.8%
O=c1c2sc3ccccc3c2n(Cc2ccccc2F)c(=O)n1Cc1ccccc1,-4.1%
COc1cc(C(=O)N/N=C/c2cc([N+](=O)[O-])cs2)cc(OC)c1OC,-6.2%
COc1ccc(CNC(=O)C(=O)NCC2OCCN2S(=O)(=O)c2ccc(OC)c(OC)c2)cc1 (centres undefined),-24.3%
Cc1cccc(N(C)C(=O)CCS(=O)(=O)c2cccc3nonc23)c1,9.1%
C1CSC2(N1)C1CC3CC2CC(C1)C31NCCS1 (centres undefined),-21.9%
COc1ccc(NC(=O)N2CCCC2C(=O)NC2CCCC2)cc1 (centres undefined),15.5%
O=C(Cn1nc2n(c1=O)-c1ccccc1SC2)N/N=C/c1cccnc1,-9.9%
CCc1ccc(CNC(=O)C2CCN(C(=O)c3ccc(-n4c(C)cc5ccccc54)s3)CC2)cc1,-2.1%
CC(C)c1ccc(OCC(=O)N(Cc2ccco2)C2CCS(=O)(=O)C2)cc1 (centres undefined),-10.7%
CN(Cc1ccccc1)C(=O)c1[nH]cnc1C(=O)N[C@@H](Cc1ccccc1)C(=O)OCc1ccccc1,-4.9%
CC1(C)Cc2c(sc3ncnc(NN)c23)CO1,3.0%
CCCCN1C(=O)C(C(=O)OCC)CC2=C1CCCC2=O (centres undefined),-13.8%
# (cont.)
SMILES,VDR inh
Cc1cccc(NC(=O)c2ccc(S(=O)(=O)N3CCOCC3)cc2)n1,-9.0%
COC(=O)CSc1nnc(CNS(=O)(=O)c2ccc(Br)cc2)n1C,-11.5%
CCOC(=O)c1cnc(SCCN2CCOCC2)nc1N,-15.6%
Cc1ccc(S(=O)(=O)N2CCCCC2)cc1NC(=O)c1ccncc1,-0.6%
COc1ccc(CNC(=O)c2ccc(C(C)C)cc2)cc1,-24.6%
COc1ccc(NC(=O)CSc2nnc(Cn3cnc4ccccc43)n2C)cc1,2.9%
CCOC(=O)C1=C(O)C(=O)N(c2ccc(S(N)(=O)=O)cc2)C1c1ccc(OC)cc1 (centres undefined),-6.4%
O=C(c1ccc2c(c1)N(Cc1cccc(Cl)c1)C(=O)c1ccccc1S2=O)N1CCN(c2cccc(C(F)(F)F)c2)CC1 (centres undefined),-2.3%
CC1CCCC(C)N1C(=O)COC(=O)CNC(=O)c1ccccc1 (centres undefined),-2.1%
CC(=O)Nc1ccccc1NC(=O)C/C(C)=N/NC(=O)C1CCCCC1,-10.1%
CN(C(=O)CC1C(=O)NCCN1Cc1ccoc1)C1CCOCC1 (centres undefined),4.5%
O=C(Cc1ccc(Br)cc1)N1CCN(c2ccccc2O)CC1,-10.7%
CN(Cc1ccccc1)C(=O)c1[nH]cnc1C(=O)NCc1ccc(CNC(=O)OC(C)(C)C)cc1,2.5%
OC1COC(OCc2ccccc2)C(O)C1O (centres undefined),-7.1%
CCCNC(=O)c1ccc2c(c1)ncn2-c1cc(C)cc(C)c1,-15.5%
CC(C)CC(=O)Nc1ccnn1C1CCN(C(=O)c2ccc(Cl)cc2F)CC1,6.6%
CCOC(=O)c1c(C)[nH]c(C(=O)OCc2ccc([N+](=O)[O-])cc2)c1C,9.3%
COc1ccc(S(=O)(=O)N2CC(C)N(C(=O)N3CCOCC3)C2)cc1 (centres undefined),-6.4%
CCOC(=O)C1CN(S(=O)(=O)c2cc(OC)ccc2OC)C1,2.4%
CCOCCN(C(=O)COC)c1cccc(OC)c1,-5.0%
CN(C(=O)c1ccc(OC2CCN(CCc3ccccc3)CC2)cc1)C1CCOC1 (centres undefined),-9.8%
COc1ccc(NC(=O)CN2C(=O)COc3ccc(S(=O)(=O)NC4CCCC4)cc32)cc1OC,-1.0%
OC(CNCc1ccco1)COc1ccccc1 (centres undefined),-10.3%
O=C(NCCCN1CCOCC1)c1cc(Cl)ccc1OCc1ccccc1,-10.6%
Cc1[nH]c2ccccc2c1C(=O)CN1C(=O)C(=O)N(CCC2=CCCCC2)C1=O,0.8%

# Copied from the list.
# `CC(C)CC(=O)Nc1ccnn1C1CCN(C(=O)c2ccc(Cl)cc2F)CC1` in VDR inh is entered as 6.6%
# `CCOC(=O)C1=C(O)C(=O)N(c2ccc(S(N)(=O)=O)cc2)C1c1ccc(OC)cc1` (centres undefined) in VDR inh is entered as -6.4%
# `Cc1cccc(NC(=O)c2ccc(S(=O)(=O)N3CCOCC3)cc2)n1` in VDR inh is entered as -9.0%
# `O=C(NCCCN1CCOCC1)c1cc(Cl)ccc1OCc1ccccc1` in VDR inh is entered as -10.6%
# `COc1ccc(NC(=O)CSc2nnc(Cn3cnc4ccccc43)n2C)cc1` in VDR inh is entered as 2.9%

# The list goes on:
SMILES,VDR inh
C/C(=N\NC1=NCCN1)c1ccc(N)c([N+](=O)[O-])c1,-5.5%
C=CCNC(=O)CSc1cc([N+](=O)[O-])cc(S(=O)(=O)Cc2ccccc2)c1,-27.8%
COc1cc(CCCN2CCNC[C@H]2Cc2cccc3ccccc23)cc(OC)c1OC,-11.4%
CC1Cc2ccccc2N1C(=O)CSc1ncccn1 (centres undefined),-15.1%
CC(C)(C)C(=O)Nc1ccc(C(=O)OC2CCCCC2)cc1,-0.5%
O=C1CC(=O)NC(SCC(=O)Nc2ccccc2[N+](=O)[O-])=N1,-10.5%
Cc1cc(C)cc(N(CC(=O)NC2CCCC2)C(=O)c2csnn2)c1,29.6%
Cc1ccc(-c2n[nH]c(=O)c3ccccc23)cc1S(N)(=O)=O,15.2%
CC(=O)C1=C(C)NC(=O)NC1c1cc(Br)ccc1OCC#N (centres undefined),-4.7%
Cc1cc(-c2cccs2)nc(-n2cccc2)n1,-0.1%
O=C(C(Sc1ccccc1)c1ccccc1)N1CCOCC1 (centres undefined),-4.1%
CCOc1cc2c(C#N)c(N3CCNCC3)nc(N)c2c(N)n1,-21.3%
O=C(O)CCN1C(=O)c2ccc(NC(=O)c3ccco3)cc2C1=O,-2.6%
Cn1cc(Cl)c(C(=O)NC(=S)Nc2sc3c(c2C#N)CCCCC3)n1,u
Cc1ccccc1Nc1nn2c(=O)c3ccc(C(=O)NCC(C)c4ccccc4)cc3nc2s1 (centres undefined),2.0%
Cc1ccsc1/C=C1\SC(N2CC(C)OC(C)C2)=NC1=O (centres undefined),-4.1%
CCOC(=O)c1cnn(-c2cccc(F)c2)c1C1CCNCC1,-18.8%

# High-throughput results: PubChem, National Center for Advancing Translational Sciences (NCATS)
